PINK1 expr mod = changes PINK1 expression | PINK1 immunofluorescence, high-content cytometry, 24 h | Potency, µM (series often up to 76.6 µM), for inactives: at the highest dose activation (PINK1 increase), actives largely listed as activators | actives 0.2% (n = 410,000) | AID 624263; active = well fitted activation curve with a large enough effect; inconclusive = small, poorly fitted or top-dose-only effect; inactive = flat fitted curve, though single readings scatter; cell line not stated here;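 also: potency is read from the fitted curve at half-maximal effect; % of control where 0% means no effect; nearly all actives have a fitted effect of over 65% in size; a mitochondrial uncoupler was the plate control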
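Stable cell line, 250 cells/well, 12 h attachment; compounds pinned at 5 concentrations, 24 h; CCCP control. Fixed with nuclear dye, primary antibodies 12 h at 10 degrees C, secondary plus cell stain; laser-scanning cytometer read.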
D2 agonist = agonists of human D2 dopamine receptor (beta-arrestin) | DiscoveRx PathHunter D2 beta-arrestin, luminescence, 90 min; 100% = 57 uM dopamine signal | activation, % (test concentration not listed) | actives 0.084% (n = 360,000) | P14416; in the data active = activation above about 40%; inconclusive = about 15% to 40%; inactive = below about 15%; also: compound concentration not given in the record; the text of the record calls up to 30% inactive
Target sequence (P14416 whole entry, looked up): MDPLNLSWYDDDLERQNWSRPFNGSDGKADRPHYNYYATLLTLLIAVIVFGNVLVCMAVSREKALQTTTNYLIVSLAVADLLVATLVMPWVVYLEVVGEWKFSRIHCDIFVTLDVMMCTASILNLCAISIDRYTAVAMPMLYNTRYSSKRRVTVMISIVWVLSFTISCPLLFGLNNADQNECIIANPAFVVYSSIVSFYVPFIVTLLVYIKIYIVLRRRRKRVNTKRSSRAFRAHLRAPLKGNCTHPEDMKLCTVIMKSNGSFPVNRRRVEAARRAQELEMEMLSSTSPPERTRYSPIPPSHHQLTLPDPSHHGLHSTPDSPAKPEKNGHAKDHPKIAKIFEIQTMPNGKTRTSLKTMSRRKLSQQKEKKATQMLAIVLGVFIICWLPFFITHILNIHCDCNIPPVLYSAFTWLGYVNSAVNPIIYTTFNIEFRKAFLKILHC
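DiscoveRx PathHunter D2 beta-arrestin cells (2,100/well) attached overnight, then compound-stimulated 90 min at 37 C in HBSS/10 mM HEPES/0.1% Tween-20 buffer; beta-galactosidase complementation read by luminescence after 1 h at ambient temperature. Dopamine 57 uM final (EC100) as control.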
Sfp PPTase inh = Sfp phosphopantetheinyl transferase inhibition. Q9F4F7. Biochemical Sfp PPTase activity, qHTS. Potency, µM, inactives show max response, negative = inhibition, usual class: inhibitors. actives 3.5% (n = 310,000); active = well fitted inhibition curve with a large enough effect; inconclusive = small, poorly fitted or top-dose-only effect, or another doubt; inactive = no such curve, though single readings can be large or run the other way;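 also: the enzyme is Sfp with the accession as filed and its product quenches rhodamine fluorescence; potency is read from the fitted curve at half-maximal effect; 0% = enzyme reaction without inhibitor and -100% = no enzyme wells; top concentration of the series not given in the record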
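Compounds were incubated with enzyme (final 15 nM) for 15 min at room temperature before substrate addition started the reaction. Fluorescence at 525 nm excitation, 598 nm emission was recorded immediately and after 30 minutes.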
ClpP mod = qHTS Assay for Activators of ClpP; ATP-dependent Clp protease proteolytic subunit (Bacillus subtilis (strain 168)), P80244; purified B. subtilis ClpP, FRET peptide cleavage, 20 min; Potency, µM (titrated, usually from 57.5 µM), for the others: at the highest dose activity change, negative = active; actives 1.9% (n = 340,000); AID 651965, 2013; active = well fitted falling curve with a large enough effect; inconclusive = small, poorly fitted or top-dose-only effect; inactive = no such curve, though single readings can be large or run the other way; also: potency is read from the fitted curve at half-maximal effect; the source files actives as falling curves though it sought activators and does not explain the sign; nearly all actives have a fitted effect of over 65% in size; many hits overshoot -100%
Target sequence (P80244 whole entry, looked up): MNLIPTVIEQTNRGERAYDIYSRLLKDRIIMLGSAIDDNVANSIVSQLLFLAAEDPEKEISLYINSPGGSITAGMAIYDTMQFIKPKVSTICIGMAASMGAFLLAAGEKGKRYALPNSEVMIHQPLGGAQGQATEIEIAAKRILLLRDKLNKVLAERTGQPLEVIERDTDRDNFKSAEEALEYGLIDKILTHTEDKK
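Purified B. subtilis ClpP, 10 microg/mL final in Tris/HCl pH8 with KCl, BSA, glycerol and Tween-20, cleaved an Abz/nitrotyrosine-quenched decapeptide. Fluorescence (ex 320, em 430) was read at 0 and 20 min at room temperature. Delta was normalized to 5.8 microM ADEP and DMSO/no-enzyme controls.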
gsp antag = antagonists of gsp mutant (McCune-Albright syndrome). gsp-mutant cells, cAMP HTRF, 30 min; control for the full effect not named in the record. AID 624288. actives 0.4% (n = 340,000). Potency, µM (doses to about 76.9 µM), for inactives: at the top dose activity change, negative = inhibition, most hits filed as inhibitors; active = falling curve of any shape with a large fitted effect; inconclusive = falling curve, mostly with a smaller effect; inactive = flat or rising curve; cell line not stated here;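 also: intracellular cAMP measured with PDE inhibitor Ro 20-1724 present during compound exposure; potency is read from the fitted curve at half-maximal effect; % is scaled to controls: 0 for no effect and ±100 for the full control effect; nearly all actives have a fitted effect of over 65% in size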
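HTRF cAMP measurement after 30 min RT detection following 30 min, 37C compound treatment alongside […] (added as 300 uM solution) in G418-selected cells seeded at 2000/well and grown 16–24 h.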
Menin-MLL FL inh = menin-MLL binding inhibition, fluorescein peptide. Fluorescence polarization, fluorescein-MLL peptide displacement from menin. FP activity change, % at 61.4 µM. 290,000 tested, under 10 active. AID 1766; inconclusive = falling polarisation curve, or a change in total fluorescence; inactive = total fluorescence flat and polarisation flat or rising; no compound was filed as active; the % refers to the polarisation; negative = inhibition;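 also: % of control where 0% means no effect; inhibitors lower the polarisation; unlabelled MLL peptide was the positive control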
gsp agonist = activates gsp, the McCune-Albright syndrome mutation; actives 0.13% (n = 340,000); gsp mutant cells, cAMP HTRF, 30 min; control for the full effect not named in the record; Potency, µM (titrated, usually from 76.9 µM), for the others: top-dose activation (cAMP increase), actives largely listed as activators; AID 624287; active = well fitted activation curve with a large enough effect; inconclusive = small, poorly fitted or top-dose-only effect, or another doubt; inactive = no such curve, though single readings can be large or run the other way; cell line not stated here;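 also: phosphodiesterase inhibitor Ro 20-1724 added with compounds to block cAMP breakdown; potency is read from the fitted curve at half-maximal effect; nearly all actives have a fitted effect of over 60% in size; about a fifth of the inactives were tested at one dose only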
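Cells stably selected in G418 were plated at 2000/well, grown 16-24 hr, then given compounds in DMSO with the PDE inhibitor […] (300 uM solution added) for 30 min at 37C; cAMP was read by HTRF.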
The depositor's hits bear a star; ? = inconclusive; · = not tested or not shown; & = joins results of further samples; [ ] = remark or other dose. An unsorted share of the library, and some 5.1% of all compounds hit somewhere here.

SMILES	PINK1 expr mod	D2 agonist	Sfp PPTase inh	ClpP mod	gsp antag	Menin-MLL FL inh	gsp agonist
O=C1CCC/C(=N\NC(=O)c2ccc(NS(=O)(=O)c3ccc(Br)cc3)cc2)C1	2.7%	-5.4	?	3.1%	11%	3.6	-4%
CN(Cc1ccco1)c1cc(-c2ccoc2)ncn1	-0.5%	·	32µM*	·	·	?	·
Cc1ccc(C(=O)NC(=S)NCCCN2CCOCC2)cc1	13%	-1.0	3%	·	11%	-8.2	-12%[15.4 µM]
CC1(c2ccc3c(c2)OCCO3)NC(=O)N(CC(=O)Nc2ccccc2F)C1=O (stereo unspecified)	0.9%	8.5	·	0.3%	4%	·	8%[15.4 µM]
COc1ccccc1-n1c(SCC(=O)Nc2ccc(Cl)cc2)nc(O)c(Cc2ccccc2)c1=O	0.1%	-0.4	·	-2.8%	·	·	-3%
COc1ccc(OC)c(NC(=O)c2sc3nc(Cc4ccccc4)cc(C(F)(F)F)c3c2N)c1	?	0.2	8%	0.5%	5%	?	?
O=c1c2cc(NC(=S)N3CCCCCC3)ccc2nc2n1CCCCC2	2.6%	-5.6	-1%	-6.9%	8%	-4.2	14%
CC(C)c1ccc(/C=C2\SC(=S)N(CCC(=O)NCCCn3ccnc3)C2=O)cc1	12%	2.4	-1%	-3.2%	5%	·	4%
Cc1cc(Cl)ccc1NC(=O)C1CCCN1C(=O)c1cccs1 (stereo unspecified)	-1.1%	-1.5	10%	·	1%	1.0	1%[15.4 µM]
CCOC(=O)n1c(SCC(N)=O)nc2ccccc21	0.5%	-0.3	3%	-1.9%	6%	-1.8	13%
Cn1ccnc1SCC(=O)Nc1ccc(Br)cc1C(F)(F)F	0.3%	-3.9	14%	0.6%	12%	·	-16%
COc1ccc2nc(/N=C/c3cccc(OC)c3O)sc2c1	-0.7%	3.4	-12%	·	-4%	7.6	-24%
C=CCn1c(=O)c2ccc(C(=O)NCc3ccccc3)cc2n(Cc2ccc(Cl)cc2)c1=O	7.0%	-1.4	9%	9.5%	12%	6.1	19%
COc1ccccc1NC(=O)NCc1nc(-c2ccc(C(F)(F)F)cc2)no1	-1.0%	-1.7	-25%	-11%	-2%	6.5	1%[15.4 µM]
COC(=O)c1cc2ccsc2n1Cc1nc(-c2ccc(OC)cc2)oc1C	5.8%[38.3 µM]	-3.2	-21%	-14%	-9%	-0.2	-7%
CNc1ccc(Br)cc(C(=O)/C=C/c2ccc(OC)cc2)c1=O	14%	-4.3	?	0.0%	4%	13	1%[15.4 µM]
CSc1ncc(C(=O)Nc2cccc(Cl)c2)c(C)n1	1.3%	0.7	10%	-9.6%	-8%	-0.8	4%
N/C(=N\OC(=O)c1ccc(Cl)cc1Cl)c1ccccn1	-0.2%	-0.4	6%	-0.2%	-2%	0.2	26%
CCN(CC)C(=O)CN(c1cc(Cl)ccc1OC)S(C)(=O)=O	-0.5%[38.3 µM]	1.7	2%	-1.1%	6%	-0.7	-36%[inhibitor]
CC(=O)NCCN1C(=O)S/C(=C\c2cccs2)C1=O	0.0%	-1.3	11%	·	-11%	-0.5	-1%[15.4 µM]
OCCC1CN(Cc2cc3ccccc3o2)CCN1Cc1ccc(F)cc1 (stereo unspecified)	0.7%	-4.6	9%	-1.8%	3%	2.2	23%
CN(C)c1ccc(C(=O)Nc2nnc(C3=COCCO3)o2)cc1	1.2%	0.5	6%	·	10%	-4.1	-4%[15.4 µM]
COc1ccc(CN2C[C@@H](CO)O[C@@H](n3cnc4c(N5CCN(C)CC5)ncnc43)C2)cc1	0.0%	-3.5	·	-2.1%	·	·	·
N#C/C(=C\c1ccc(-c2ccc(S(=O)(=O)N3CCOCC3)cc2)o1)C(=O)NC1CC1	3.8%	2.4	8%	1.4%	-3%	0.8	-5%[15.4 µM]
CCOc1ccccc1CN1CCN(CC2=Cc3cc(OC)ccc3OC2)CC1CCO (stereo unspecified)	-0.5%	-5.0	3%	-2.8%	6%	-1.0	1%
Cc1cccc(N2CCN(Cc3nc(CC4CC4)no3)CC2)n1	2.3%	1.9	6%	·	13%	-2.1	8%
CCc1ccccc1NC(=O)CCc1nc(-c2cccs2)no1	0.2%	-0.9	16%	1.2%	-2%	-0.7	?
Cc1ccnn1CC(=O)N/N=C/c1ccco1	·	-3.1	7%	3.1%	11%	5.2	-49%[inhibitor]
O=C(COC(=O)c1ccc2ccccc2n1)c1ccc(F)cc1	2.7%	-4.4	20%	·	-23%	0.8	-8%[15.4 µM]
Cc1ccsc1/C=N/NC(=O)CC(=O)NCC(C)C	0.0%	-2.0	14%	-0.1%	8%	1.4	?
Cc1ccnc(NC(=O)c2ccc(S(=O)(=O)NCc3ccco3)cc2)c1	7.8%	-3.3	·	·	1%	·	-30%[15.4 µM]
CCc1nc2ccc(C(=O)Nc3ccc(OC)c(OC)c3)cn2c1N(C)C(=O)c1cccc(OC)c1	0.2%	-0.2	·	0.1%	·	·	·
O=C(Cn1ncc(Cl)c(Cl)c1=O)N1CCc2ccccc21	-2.5%	1.5	-6%	·	10%	?	-36%[15.4 µM]
Cc1nnc(NC(=O)c2ccc(Br)cc2)s1	1.4%	-4.5	-7%	0.1%	13%	4.2	6%
CC(C)Oc1ccc(CSC(=N)N)cc1	1.2%[38.3 µM]	-3.8	4%	-11%	2%	-1.9	?
COC(=O)c1ccc(C2c3[nH]c4ccccc4c3C[C@H]3C(=O)N(C4CCN(Cc5ccccc5)CC4)CC(=O)N23)cc1 (stereo partly specified)	-1.6%	1.5	9%	-9.5%	-2%	-5.7	?
COc1ccc(CNC(=O)c2cccc(NC(=O)CC3SC(N4CCCCC4)=NC3=O)c2)cc1 (stereo unspecified)	-4.9%	-2.3	·	-1.4%	1%	·	-34%[inhibitor]
CC(C)(C)c1ccccc1NC(=S)NC1CCCC1	25%	-3.9	4%	-1.8%	1%	-1.9	18%
C[C@@H](CN=[N+]=[N-])CN1CC[C@H](NC(=O)OCc2ccccc2)CCC1=O	1.5%	-3.7	3%	0.1%&-2.1%	6%	-3.4	-22%
CCOC(=O)c1ccccc1N/C=C/C(=O)c1cccs1	0.7%	-7.2	-16%	2.8%	?	12	-28%
CC(=O)c1ccc(N(CC(=O)NC2CCCC2)C(=O)CCC(=O)Nc2cc(C)on2)cc1	1.3%	-4.7	5%	·	9%	·	0%
CCOc1ccc(CC(=O)NC2CCN(Cc3ccccc3)CC2)cc1	0.5%	-3.8	11%	-5.8%	10%	1.6	6%
CC1=NN(c2ccc(S(=O)(=O)O)cc2Cl)C(=O)C1	-0.8%	-7.8	?	1.1%	7%	-0.4	4%[15.4 µM]
Cc1ccc(-n2c(SCc3ccc(C(=O)O)cc3)nnc2-c2ccncc2)cc1	6.6%	0.7	17%	·	-2%	4.1	0%[15.4 µM]
N#CNc1nc(O)cc(=O)[nH]1	1.4%	-1.2	?	·	11%	?	36%
CCCOc1ccc2[nH]cc(C(=O)O)c(=O)c2c1	0.2%	-1.5	8%	-10%	12%	4.7	21%
CCOC(=O)C1CCN(C(=S)Nc2ccc(Cl)cc2C)CC1	1.6%	5.5	9%	·	4%	-4.5	-33%[inhibitor]
Cc1nn2c(CN(C(=O)c3ccco3)c3ccccc3)nnc2c2ccccc12	-2.4%	-4.4	·	-3.6%	-16%	·	?
O=C(Nc1cccc(S(=O)(=O)NCc2ccco2)c1)c1cc(-c2ccccc2)nc2ccccc12	0.3%	9.1	9%	·	-24%	12	-1%[15.4 µM]
CCc1ccc(C2=C/C(=C/c3cccnc3)C(=O)O2)cc1	2.7%	-10.0	-12%	-1.6%	7%	32[activator]	-57%[inhibitor]
Cc1cc(C)c2c(=O)[nH]c(SCC(=O)Nc3ccc(N(C)C)cc3)nc2n1	0.3%[38.3 µM]	-1.7	2%	2.7%	9%	4.0	18%
CCCC(=O)Nc1ccc(Cl)c(NC(=S)NC(=O)c2cc3ccccc3o2)c1	?	-0.5	-5%	-4.1%	3%	-1.3	3%[15.4 µM]
COc1cc(CCC(=O)NNC(=O)c2ccc(C)cc2)cc(OC)c1OC	-0.3%	-2.6	13%	-3.4%	-14%	-0.9	-6%
CC(C)NC(=O)C1CCN(Cc2cccc(OCc3ccccc3)c2)CC1	-0.4%	-0.9	·	-4.4%	·	·	-86%[inhibitor]
CCCCCNC(=O)C1CCC(Cn2c(=S)[nH]c3ccccc3c2=O)CC1 (stereo unspecified)	2.7%	0.2	7%	2.1%	-5%	7.9	33%
Cc1ccc(-n2c(-c3cnccn3)n[nH]c2=S)cc1	0.6%	-3.4	56µM*	0.2%	-4%	-4.7	-1%
Cc1ccsc1C(=O)NCC(C)(C)N1CCOCC1	-0.5%	-4.8	·	-2.3%	10%	·	-10%
CN(N)c1nc(-c2ccccc2)cc(-c2ccccc2)n1	-0.1%	9.2	-19%	-2.4%	-16%	3.0	12%[15.4 µM]
COC(=O)c1c(C)[nH]c(C(=O)/C=C/c2ccc(Cl)cc2)c1C	20%	-0.1	-6%	1.1%	-14%	-4.9	7%
C/C(=C\c1ccccc1)C(=O)c1c(C)cc(C)[nH]c1=O	-1.1%	-5.5	11%	-0.5%	-1%	0.3	?
Next section
SMILES	PINK1 expr mod	D2 agonist	Sfp PPTase inh	ClpP mod	gsp antag	Menin-MLL FL inh	gsp agonist
COc1cccc(-c2n[nH]nc2C2=CC(=O)CC(C)(C)C2)c1	1.1%	-5.5	·	-0.9%	·	·	?
CSc1nnc2c(n1)OC(c1cn(C)c3ccccc13)N(C(C)=O)c1ccccc1-2 (stereo unspecified)	0.2%	-3.7	7%	2.2%	17%	6.1	-26%
Cc1ccn(CC(=O)O)c(=O)c1	-5.3%[38.3 µM]	-3.0	2%	-0.4%	8%	-0.1	-30%
COc1ccc(NC(=O)c2ccc(-c3c(C)noc3C)c3ccoc23)cn1	1.7%	-0.9	·	-0.1%	·	·	·
Cc1cc(OCCCC(=O)NCCN2C(=O)S/C(=C\c3cccnc3)C2=O)ccc1Cl	9.9%	1.9	-7%	·	?	4.8	-26%
COCCn1c(=NC(=O)c2ccc(S(=O)(=O)N3CCCc4ccccc43)cc2)sc2cc(S(C)(=O)=O)ccc21	2.1%	4.3	7%	-5.4%	0%	12	3%
O=C(/N=C1\NC(=O)C(F)(C(F)(F)F)S1)NC1CCCCC1 (stereo unspecified)	-0.7%	-3.5	13µM*	-4.0%	3%	-0.9	-38%[inhibitor]

High-throughput results deposited in PubChem by National Center for Advancing Translational Sciences (NCATS).
